# GIRK2 act = opens human GIRK2 potassium channels | HEK293-GIRK2 thallium flux, Thallos fluorescence | calls only for hits at 25 µM | actives 0.05% (n = 63,000) | AID 1259325;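 active means among the strongest 0.2% of first-round signals and kept after retests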;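 further: first round at about 10 µM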
# Target sequence (P48051 whole entry, looked up): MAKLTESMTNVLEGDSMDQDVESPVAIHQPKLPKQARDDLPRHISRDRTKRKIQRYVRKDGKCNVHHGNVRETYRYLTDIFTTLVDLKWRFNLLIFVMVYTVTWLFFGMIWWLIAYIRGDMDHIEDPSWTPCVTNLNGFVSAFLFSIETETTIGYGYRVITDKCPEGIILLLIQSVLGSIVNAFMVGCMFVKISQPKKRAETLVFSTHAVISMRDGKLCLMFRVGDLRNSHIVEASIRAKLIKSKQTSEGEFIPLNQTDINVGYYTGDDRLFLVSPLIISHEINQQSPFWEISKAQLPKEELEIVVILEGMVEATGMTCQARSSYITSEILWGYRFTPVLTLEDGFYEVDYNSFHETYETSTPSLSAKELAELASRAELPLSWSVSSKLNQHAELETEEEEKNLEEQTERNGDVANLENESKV
# Calls only; i = inactive.
GIRK2 act	molecule
i	CC(C)(O)c1nc2ccccc2n1CC1CC1(Cl)Cl (centres undefined)
i	O=C(Nc1ccc(CC(=O)N2CCC(O)CC2)cc1)C1CC=CCC1 (centres undefined)
i	CCOC(=O)c1c(NCCc2cccs2)c2cccc(C)c2[nH]c1=O
i	COc1ccccc1NC(=O)C1C(C)Nc2ncnn2C1c1ccccc1 (centres undefined)
i	O=C(CCSc1ccccc1)NCC#CCN1CCCC1
i	COc1ccc(-c2cn[nH]c2-c2ccc(OCCN3CC(C)OC(C)C3)cc2O)cc1 (centres undefined)
i	CC(C)(C)N1CC(c2nc3ccccc3n2CCOc2ccc(Cl)cc2)CC1=O (centres undefined)
i	CCOCCn1c(=O)c2c(nc3n2CC(C)CN3c2ccc(C)cc2)n(C)c1=O (centres undefined)
i	CCOC(=O)c1cccc(NC(=O)CSc2nccnc2N2CCSCC2)c1
i	Cc1ccc(-n2c(C)c(C)n3c4c(=O)n(CCN5CCOCC5)c(=O)n(C)c4nc23)cc1
i	CC(C)CCNC(=O)CCc1csc(NC(=O)c2ccc(=O)[nH]c2)n1
i	N#Cc1c(SCC(=O)NC2CCCCC2)nc2c(c1C(F)(F)F)CCCC2
i	O=c1[nH]c2ccc(N=Cc3c(O)[nH]c4ccccc34)cc2[nH]1
i	O=C(Cc1ccccc1Cl)N(CCc1cccs1)Cc1ccco1
i	CN(C)CCCCC(=O)Nc1ccc(NC(=S)NC(=O)c2ccc(C(C)(C)C)cc2)cc1
i	Cc1c(CNC(=O)Cc2c[nH]c3ccccc23)sc2nc(-c3ccc(F)cc3)cn12
i	Cn1nc(N2CCC(C(=O)N3CCc4ccccc4C3)CC2)ccc1=O
i	COc1ccc(NC(=O)Cn2[nH]c(-c3ccc(C)cc3)cc2=O)cc1Cl
i	O=C(CCCSc1ccccc1)Nc1nnc(-c2ccc3c(c2)OCCO3)o1
i	Cc1ccc2c(Nc3ccc(Br)c(C)c3)c(C(=O)N3CCOCC3)cnc2n1
i	COc1cccc(N(C)S(=O)(=O)c2ccsc2-c2nc(-c3ccc(OC)c(OC)c3)no2)c1
i	C/C(=C/CO)CC[C@H]1[C@]2(C)C[C@H](O)CC(C)(C)[C@H]2CC[C@]1(C)O
i	COc1ccc(C)cc1NC(=O)Cn1c(C)nc2c(-c3ccccn3)nsc2c1=O
i	O=C(NCC1CCN(S(=O)(=O)c2cccnc2)CC1)c1cccc(Br)c1
i	CCOCCCNC(=O)CCc1nnc2ccc(-c3ccc(C)c(C)c3)nn12
i	CCc1noc(-c2ccc(SCC(=O)N3CCN(c4ccccc4OC)CC3)nc2)n1
i	O=C(O)CCCCCn1c(=S)[nH]c2ccc(Br)cc2c1=O
i	O=C(c1ccc([N+](=O)[O-])cc1)N(C(=O)N1CCCCC1)c1ccccc1
i	CCn1c(=O)c2c(nc3n2CCCN3c2ccc(OC)c(Cl)c2)n(C)c1=O
i	CN(c1ccsc1C(=O)NCc1ccc2c(c1)OCO2)S(=O)(=O)c1ccccc1
i	COc1ccc(F)cc1S(=O)(=O)N1CCN(c2ccc(-c3ccccc3)nn2)CC1
i	O=C(Cc1ccccc1Cl)Nc1cc(N2CCN(c3ccccc3)CC2)ncn1
i	COCCNC(=O)C1CCCN(c2nc3c(-c4ccccc4)csc3c(=O)[nH]2)C1 (centres undefined)
i	CC(=O)NC1=NN(C(C)=O)C2(S1)C(=O)N(CC(C)C)c1ccc(Br)cc12 (centres undefined)
i	CCN(CC)C(=O)Oc1ccc2c(=O)c(-c3ccc(OC)cc3)c(C)oc2c1
i	COc1cccc2sc(OC3CN(C(=O)Cc4ccc5c(c4)OCO5)C3)nc12
i	O=C(CN1CCC(c2nnc(C(F)(F)F)o2)CC1)Nc1ccccc1C(F)(F)F
i	COc1ccc(C2C(=C(O)c3c(C)nc4c(C)cccn34)C(=O)C(=O)N2CCN(C)C)cc1 (centres undefined)
i	O=C(CCCSc1ccc(NC(=O)c2ccco2)nn1)Nc1nc2ccccc2s1
i	O=C(Cn1nc2c(N3CCOCC3)nccn2c1=O)Nc1ccc2c(c1)OCO2
i	CC(=O)Nc1ccc(S(=O)(=O)NC2(c3nc(C)no3)CCCCC2)cc1
i	CCOc1ccc(-c2cc(C(=O)N3CCC(NC(=O)c4ccc(OC)cc4)CC3)[nH]n2)cc1
i	O=C(Nc1cc(OCc2ccccc2)ncn1)C1CC=CCC1 (centres undefined)
i	COc1cccc(C(=O)NCCN2CCN(c3ccc(Cl)cc3)CC2)c1OC
i	CCCCn1c(SCc2nc(-c3ccccc3)no2)nc2cc3c(cc2c1=O)OCO3

# 7 neighbouring records out of the list so far, quoted:
GIRK2 act	molecule
i	COc1ccc(F)cc1S(=O)(=O)N1CCN(c2ccc(-c3ccccc3)nn2)CC1
i	O=C(Cc1ccccc1Cl)Nc1cc(N2CCN(c3ccccc3)CC2)ncn1
i	COCCNC(=O)C1CCCN(c2nc3c(-c4ccccc4)csc3c(=O)[nH]2)C1 (centres undefined)
i	CC(=O)NC1=NN(C(C)=O)C2(S1)C(=O)N(CC(C)C)c1ccc(Br)cc12 (centres undefined)
i	CCN(CC)C(=O)Oc1ccc2c(=O)c(-c3ccc(OC)cc3)c(C)oc2c1
i	COc1cccc2sc(OC3CN(C(=O)Cc4ccc5c(c4)OCO5)C3)nc12
i	O=C(CN1CCC(c2nnc(C(F)(F)F)o2)CC1)Nc1ccccc1C(F)(F)F

# Later entries:
GIRK2 act	molecule
i	COc1ccc(-c2nnc(NC(=O)c3ccc([N+](=O)[O-])cc3)o2)cc1OC
i	O=C1CN(c2ccccc2NC(=O)NC2CCCCC2)CCN1
i	CC1CCN=C(N)C1 (centres undefined)
i	Cc1ccc(CNC(=O)c2ccc3c(=O)n(-c4ccc(C)c(C)c4)c(N4CCOCC4)nc3c2)o1
i	Cc1ccc2nc(-c3ccc(NC(=O)c4cc5cccnc5n(C)c4=O)cc3)sc2c1
i	O=C(c1cccs1)N1CCN(Cc2nc(-c3ccc(Cl)cc3)cs2)CC1
i	CC(C)Sc1cccc(-c2nnc(NC(=O)c3cnccn3)o2)c1
i	COc1ccc(N2C(=O)C(F)(F)C2c2ccccc2F)cc1 (centres undefined)
i	COC(=O)c1ccc(C(=O)N2CC3(COC(C)(C)OC3)C2)cc1
i	Cc1nnc(CNC(=O)c2cc(-c3ccc(F)cc3)c[nH]2)o1
i	O=C(CN1CCc2[nH]c3c(F)ccc(F)c3c(=O)c2C1)Nc1ccccc1Cl
i	Cc1ccccc1C(=O)Nc1ccc(-n2nnc(C(N)=O)n2)cc1
i	COc1cccc(-c2nc(CSc3nc4ccccc4c(=O)n3C3CCCC3)c(C)o2)c1OC
i	C=CCCC(=O)NCC1(O)CCCC1
i	CN1CCC(CNC(=O)CSCc2ccccc2)CC1
i	CC(C)(C)CC(C)(C)NC(=O)Nc1ccc(F)cc1
i	O=S1(=O)N=CNc2ccc(S(=O)(=O)N3CCN(c4ccc(F)cc4)CC3)cc21
i	COc1ccc(OC)c(-c2cc(C(=O)N3CC(c4nc(-c5ccncc5)no4)C3)[nH]n2)c1
i	COc1cc(NC(=O)c2csc(Cc3nc(-c4ccccc4)no3)n2)cc(OC)c1
i	O=C(NCC1CCN(Cc2ccccc2)CC1)Nc1ccccc1Cl
i	CCCCOc1ccc(-c2cc3c(=O)n(Cc4nc(-c5ccc6c(c5)OCO6)no4)ccn3n2)cc1
i	COc1cccc2sc(N(C)CC(=O)N3CCC4(CC3)OCCO4)nc12
i	O=C(NCCc1ccc(Cl)cc1)c1coc(NC(=O)c2cnccn2)n1
i	O=S(=O)(NCc1cc(-c2cccs2)n(C2CCCC2)n1)C1CC1
i	FC(F)(F)c1cc(-c2ccco2)nc(SCc2nc3ccccc3[nH]2)n1
i	Cc1ccc(N2CCn3c2nc2c3c(=O)n(C)c(=O)n2C)cc1Cl
i	CCCNC(=O)c1cnn(-c2cc(C)cc(C)c2)c1-n1cccc1
i	COc1cccc(CNC(=O)Cc2sc(C)nc2C)c1
i	O=C(COc1ccc(Cl)cc1Cl)N(Cc1ccsc1)Cc1ccco1
i	CSc1ccc(/C=C2\C=C(C(C)C(=O)NCc3ccccc3)c3cc(F)ccc32)cc1 (centres undefined)

# Reformatted as labelled records: part of the list above.
compound: O=S(=O)(NCc1cc(-c2cccs2)n(C2CCCC2)n1)C1CC1
  GIRK2 act: i
compound: COc1cccc2sc(N(C)CC(=O)N3CCC4(CC3)OCCO4)nc12
  GIRK2 act: i
compound: CC(C)(C)CC(C)(C)NC(=O)Nc1ccc(F)cc1
  GIRK2 act: i
compound: CCCCOc1ccc(-c2cc3c(=O)n(Cc4nc(-c5ccc6c(c5)OCO6)no4)ccn3n2)cc1
  GIRK2 act: i

# (list continues)
GIRK2 act	molecule
i	O=C(Nc1ccc2c(c1)OCO2)c1csc(Nc2ccc(OC(F)F)cc2)n1
i	CCOC(=O)C1CCCN(C(=O)CSc2nnc(CCc3nc4ccccc4[nH]3)o2)C1 (centres undefined)
i	COc1cc(/C=C/C(=O)Nc2nnc(-c3ccsc3)o2)cc(OC)c1OC
i	COc1cccc2cc(C(=O)NCC3(O)CCc4ccccc4C3)oc12 (centres undefined)
i	Cc1ccc(NC(=O)C2Nc3cc(C)ccc3S(=O)(=O)N2)c(Cl)c1 (centres undefined)
i	O=S1(=O)CCCCN1c1ccc(S(=O)(=O)N2CCC3(CC2)OCCS3)cc1
i	O=C(Cn1cnc2c(oc3ccccc32)c1=O)NCc1ccccc1Br
i	COc1ccc(C(=O)NCCS(=O)(=O)NCc2ccc3c(c2)OCO3)cc1
i	CCOc1ccc(N2CCN(CC(=O)NCc3ccco3)C2=O)cc1
i	Cc1cccc(N2CCN(C(=O)c3nnn(-c4ccc(F)cc4)n3)CC2)c1
i	Cc1ccc(N2CC(C(=O)NCCC(O)c3ccccc3)CC2=O)cc1C (centres undefined)
i	O=C(NCCOc1ccccc1)N(Cc1ccsc1)CC(F)(F)F
i	O=C(C1CC1)N1CCC(Cn2c(COc3ccccc3)nc3ccccc32)CC1
i	Cc1cc(C(=O)Nc2ccc(-n3nnn(CC(=O)NC4CC4)c3=O)cc2)c(C)o1
i	Cc1ccccc1-n1nnc(C(=O)NCCc2c[nH]c3ccccc23)c1-c1ccncc1

# 3 entries from above, set out differently.
> Cc1ccc(-n2c(C)c(C)n3c4c(=O)n(CCN5CCOCC5)c(=O)n(C)c4nc23)cc1
  GIRK2 act: i

> CC(C)CCNC(=O)CCc1csc(NC(=O)c2ccc(=O)[nH]c2)n1
  GIRK2 act: i

> N#Cc1c(SCC(=O)NC2CCCCC2)nc2c(c1C(F)(F)F)CCCC2
  GIRK2 act: i

# Next records.
GIRK2 act	molecule
i	CCc1c(-c2ccc(F)cc2)nn2c1NC(=O)C2CC(=O)Nc1ccc(Cl)cc1Cl (centres undefined)
i	O=C(Nc1ccc2c(c1)OCO2)c1ccc(NS(=O)(=O)c2cccc(F)c2)cc1
i	Cc1cc(NCCCn2ccnc2)n2nc(C)c(-c3ccccc3)c2n1
i	CC(O)(CNC(=O)Cn1c(=O)oc2ccccc21)c1cccs1 (centres undefined)
i	CN(C)C(CNC(=O)C1c2ccccc2Oc2ccccc21)c1ccsc1 (centres undefined)
i	COc1ccccc1N1CCN(C(=O)CSc2n[nH]c(=O)c3cc(-c4ccco4)nn23)CC1
i	O=C(Nc1nc2c(s1)CN(C(=O)Nc1ccccc1F)CC2)c1ccoc1
i	Cc1ccc(-n2nnc(-c3nn4c(Cc5ccccc5)nnc4s3)c2C)cc1Cl
i	CCOc1ccccc1-c1nc(Cn2nnc(C(=O)Nc3ccc(Cl)cc3)c2N)c(C)o1
i	Cc1ccc(NS(=O)(=O)c2cc(C)c3[nH]c(=O)cc(C)c3c2)c(C)c1
i	CCc1noc(C2CC(=O)N(Cc3ccc4c(c3)OCO4)C2)n1 (centres undefined)
i	Cc1nnsc1C(=O)Nc1cccc(N2CCCS2(=O)=O)c1
i	O=C(Nc1ccccc1Cl)C(c1ccccc1)n1cccc1 (centres undefined)
i	CC(C)Sc1ccc(CC(=O)N2CCN(C(=O)C3CC3c3cccs3)CC2)cc1 (centres undefined)
i	Cc1cccc(NC(=O)Cn2cc(S(=O)(=O)c3ccc(Cl)cc3)c(=O)c3ccccc32)c1
i	Cc1nc2ccccc2n1CC1CCN(C(=O)c2cc(-c3ccc(F)cc3)n[nH]2)CC1
i	COc1cccc2cc(C(=O)N3CCC(CSc4nc(C)cs4)CC3)c(=O)oc12
i	Cc1ccc(OCC(O)CN2CCN(c3ccc(F)cc3)CC2)cc1 (centres undefined)
i	COc1ccccc1NC(=O)Cn1c(=O)c(CNc2ccccc2)cc2cc(OC)c(OC)cc21
i	Cc1cccc(C)c1NC(=S)c1nc2ccccc2[nH]1
i	COc1ccc(-c2c(NC(=O)CN3CCOCC3)oc3ccccc3c2=O)cc1OC
i	O=C(c1c(F)cccc1F)N1CCC(Oc2nc3ccccc3s2)CC1
i	O=C(CN1CCN(c2ccccc2F)C1=O)Nc1ccc(F)c(C(F)(F)F)c1
i	COc1ccc(C(=O)COC(=O)c2cc3cccc(OC)c3oc2=O)cc1
i	CCc1ccccc1NC(=O)Cn1cnc(-c2noc(-c3ccncc3)n2)c1
i	CCOC(=O)N1CCN(CC(O)COc2cccc3ccccc23)CC1 (centres undefined)
i	Cc1cc(NS(=O)(=O)N2CCOCC2)no1
i	O=P(O)(O)OC1C(OP(=O)(O)O)[C@@H](O)C(O)[C@@H](O)C1OP(=O)(O)O (some centres undefined)
i	CC(O)(CCc1ccccc1)CNC(=O)Nc1ccccc1F (centres undefined)
i	O=C(c1cnn2c1OCCC2)N1CCCCC1
i	CCc1ccccc1NC(=O)c1csc(Nc2ccc(S(C)(=O)=O)cc2)n1
i	O=C(/C=C/c1ccsc1)NCc1ccc(C(O)c2cccs2)s1 (centres undefined)
i	CC(=O)Cn1c(=O)c2c(nc3n(-c4ccccc4F)c(C)c(C)n23)n(C)c1=O
i	CCC(C(=O)N(Cc1ccoc1)Cc1cccs1)c1ccccc1 (centres undefined)
i	COc1ccc2c(=O)c3c(=O)n(-c4ccccc4)c(C)nc3oc2c1
i	Cc1cccc(N2CCN(C(=O)c3ccc(Cn4c(=O)[nH]c5ccsc5c4=O)cc3)CC2C)c1 (centres undefined)

# Given with bars between the fields: part of the list above
compound | GIRK2 act
O=C(Nc1ccc2c(c1)OCO2)c1ccc(NS(=O)(=O)c2cccc(F)c2)cc1 | i
Cc1cc(NCCCn2ccnc2)n2nc(C)c(-c3ccccc3)c2n1 | i

# Assay outcomes (PubChem BioAssay)

# Only part of the results is shown (hit frequency here may not be typical).
